# Screening results as filed in PubChem BioAssay.
# HNF4A DNA FP: change in binding of human HNF4 alpha to DNA | HNF4a-FITC DNA binding, fluorescence polarization, 1 h | activity change, % at 10 µM | 0.3% of 360,000 active; in the data active means activity change above about 30%, passing the limit was not always enough;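 further: controls were the assay level and a saturating level of protein; the project sought stronger binding though the title names inhibitors; some compounds called inactive have numbers as strong as hits; positive values seem to mean higher polarization but the record does not say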
# Target sequence (P41235 whole entry, looked up): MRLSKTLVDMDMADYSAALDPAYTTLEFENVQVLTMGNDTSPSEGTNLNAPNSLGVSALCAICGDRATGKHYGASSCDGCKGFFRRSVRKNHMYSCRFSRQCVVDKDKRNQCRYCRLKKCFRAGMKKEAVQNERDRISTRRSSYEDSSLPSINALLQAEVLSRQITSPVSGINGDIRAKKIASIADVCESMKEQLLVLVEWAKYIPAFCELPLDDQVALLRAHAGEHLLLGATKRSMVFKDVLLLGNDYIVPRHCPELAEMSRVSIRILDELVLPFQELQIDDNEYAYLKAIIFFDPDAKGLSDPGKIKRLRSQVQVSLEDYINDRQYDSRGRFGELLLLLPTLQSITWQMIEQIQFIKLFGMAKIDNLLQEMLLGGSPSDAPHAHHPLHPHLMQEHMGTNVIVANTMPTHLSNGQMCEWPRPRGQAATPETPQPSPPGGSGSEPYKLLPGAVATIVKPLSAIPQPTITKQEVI
# Beta2AR agonist: activates human beta-2 adrenergic receptor causing internalization; P07550; Am2.2-beta2AR cells, FAP receptor internalization, flow cytometry; reference of the scale not given here; response, % (no concentration beside the values); 0.43% of 340,000 active;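 active means response above a set limit, near 3 SD of response in nonfluorescent compounds, cut at about 42% in these data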;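 further: stock transfer was 100 nL into about 11 µL; a reference agonist was the positive control; negative values mostly stem from fluorescent compounds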
# Target sequence (P07550 whole entry, looked up): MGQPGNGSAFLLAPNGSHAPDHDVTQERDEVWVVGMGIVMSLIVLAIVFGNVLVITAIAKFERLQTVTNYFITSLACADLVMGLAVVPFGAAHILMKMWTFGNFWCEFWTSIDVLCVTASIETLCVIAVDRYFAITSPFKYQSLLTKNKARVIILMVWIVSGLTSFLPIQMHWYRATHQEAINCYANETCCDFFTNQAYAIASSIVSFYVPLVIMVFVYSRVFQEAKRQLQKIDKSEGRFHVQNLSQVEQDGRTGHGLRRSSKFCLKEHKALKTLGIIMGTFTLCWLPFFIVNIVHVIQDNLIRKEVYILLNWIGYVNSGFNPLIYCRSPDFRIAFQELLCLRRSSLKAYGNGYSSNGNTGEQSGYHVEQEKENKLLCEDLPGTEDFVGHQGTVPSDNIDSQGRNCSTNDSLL
# LANA-H2B inh: blocks KSHV LANA binding to histone H2A/H2B; cell-free LANA-H2A/H2B peptide, fluorescence polarization; inhibition, % (no concentration beside the values); 0.6% of 320,000 active; in the data active means inhibition mostly above about 10%, no sharp cut-off; inactive means mostly below about 6.7%;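 further: stock transfer was 7.5 nL into about 10 µL; 0% = median of vehicle wells and 100% = median of positive control wells; one replicate is shown; the record names a cut of 25% in any replicate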
# Vif A3G: inhibitors of Vif binding to APOBEC3G peptide, primary screen, biochemical, TR-FRET, GST-Vif 1-94, biotin-A3G peptide, dose response retest (AID 1117319); TR-FRET GST-Vif / biotin-A3G peptide binding; higher % means a stronger effect; test concentration not given here; strong numbers were not always called active; inhibition, %; hits with a dose series show IC50 in µM; 0.57% of 260,000 active;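 active means above the screen mean plus three standard deviations and confirmed in dose response; inconclusive means results disagree or hit not tested in dose response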;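 further: Vif residues 1-94 fused to GST binding biotinylated APOBEC3G peptide 110-148; 0% = full assay without inhibitor and 100% = GST in place of GST-Vif; retest series ran down from 100 µM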
# RanGTP-Impb inh: inhibitors of RanGTP-importin-beta interaction, primary screen, biochemical, FRET, CFP-Ran, YFP-importin-beta, homogeneous; AID 2216; 1.1% of 300,000 active; cell-free CFP-Ran/YFP-importin-beta FRET ratio; inhibition, % (concentration not given with the values);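 active means most replicates above 15%; inconclusive means exactly half above 15%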;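 further: 0% = DMSO wells and 100% = Ran loaded with GDP instead of GTP; wells of about 40 µL received 100 nL stock; the first replicate is given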
# Calb FLC: affects C. albicans growth with fluconazole. 0.57% of 300,000 active. C. albicans CaCi-2 (fluconazole-resistant clinical isolate) + fluconazole, Alamar Blue growth, 48 h. AID 1979. growth inhibition, % (test concentration not listed);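 active means most replicates above 75%; inconclusive means exactly half above 75%; inactive means most below 75%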;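 further: all wells also contain fluconazole at 8 µg/ml as a sub-toxic cotreatment; 0% = median of DMSO wells and 100% = median of geldanamycin control wells; wells of about 8 µL received 7.5 nL stock; the first replicate is given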
# ALR inh: blocks human ALR sulfhydryl oxidase activity | P55789 | purified ALR, DTT oxidation, H2O2 HRP-luminol luminescence | inhibition, % (test concentration not listed) | 3.8% of 290,000 active | AID 485317;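 active means mean and each replicate at 75% or more; inconclusive means only one of the two met; inactive means neither met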;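 further: stock transfer was 7.5 nL into about 7.5 µL; 0% = neutral wells and 100% = wells with inactivated enzyme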
# Target sequence (P55789 whole entry, looked up): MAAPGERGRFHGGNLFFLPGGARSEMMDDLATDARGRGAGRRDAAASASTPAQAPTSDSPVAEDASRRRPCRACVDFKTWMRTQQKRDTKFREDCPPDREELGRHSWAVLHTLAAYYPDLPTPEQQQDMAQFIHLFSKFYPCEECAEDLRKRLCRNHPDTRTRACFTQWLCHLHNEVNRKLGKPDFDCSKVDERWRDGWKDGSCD
# * hit, by the source's call; u = inconclusive; x = not tested or not shown; & = joins results of further samples.
# Each structure is followed by: LANA-H2B inh	Vif A3G	ALR inh	Beta2AR agonist	Calb FLC	HNF4A DNA FP	RanGTP-Impb inh
CCOC(=O)N1CCN(C(=O)c2cn(CCOC)c(=O)c3c2c2ccccc2n3C)CC1
→ -6.3	22%	-7	-5	-34	2.4	1.2
O=C(CCCN1C(=O)/C(=C/c2ccccc2Cl)SC1=S)N1CCCC1
→ 5.8	x	-3	-8	x	3.7	4.2
CC(C)NC(=O)CCc1nc2cccnc2n1-c1ccccc1
→ 0.4	x	-5	-4	-2	-1.1	-7.9
COc1cc2c(cc1OC)C(SC)=NC(C)(C)C2
→ -0.5	-1%	7	22	32	-3.2	-5.8
CCc1ccc(-c2nn(-c3ccccc3)cc2C2SCC(=O)N2Cc2ccco2)cc1 (stereo not given)
→ -1.0	-8%	x	-8	4	1.6	-0.3
CCOc1cc(NC(=S)NCC2CCCO2)c(OCC)cc1NC(=O)c1cccc(C)c1 (stereo not given)
→ -4.7	13%	-13	47*	8	2.7	0.4
C[n+]1ccc(/C=C/c2cccs2)cc1
→ 3.6	x	-8	-5	0	5.6	1.3
CC(=O)Nc1ccc(S(=O)(=O)N2CCN(C(=O)N3CCCCCC3)CC2)cc1
→ 0.4	16%	1	-3	-25	-1.8	-2.7
C=CCC1(CC=C)CCCN1C(=O)c1cc(COc2ccc(F)c(F)c2)on1
→ 0.4	x	3	1	-36	-0.1	-1.4
CC(=O)Nc1ccc(CN2CCN(Cc3ccc(C)cc3)C(CCO)C2)cc1 (stereo not given)
→ 1.8	4%	-3	-8	11	-4.8	2.3
COCC(C)NC(=O)C1CC(=O)N(c2ccc(C)cc2)C1 (stereo not given)
→ 1.3	5%	-7	10	4	0.8	-3.6
CN(Cc1ccno1)C(=O)CC1C(=O)NCCN1CC(c1ccccc1)c1ccccc1 (stereo not given)
→ 0.9	-5%	-24	5	-5	-1.6	4.0
CCCCC(=O)Nc1ccccc1C#N
→ 2.0	u	-2	-5	-12	-2.7	1.5
CN(C(=O)CCN1C(=O)C2C3C=CC(C3)C2C1=O)c1ccccc1 (stereo not given)
→ 1.7	3%	-26	6	-10	-0.7	u
CC1(C)C(=O)C2(CCCCC2)C(=O)OC1c1ccc(O)cc1 (stereo not given)
→ -4.7	3%	-1	4	-18	-4.9	-2.4
CC(C)c1ccc2c(c1)C(=O)NC(C)(C)C2
→ -0.4	-2%	92*	3	-1	-1.1	3.1
Cc1nn(-c2ccc(F)cc2)c2nc(N)c(C#N)c(-c3ccc(O)c(O)c3)c12
→ 6.5	5%	-3	28	-13	22	6.3
COc1cccc(CN2CCN(C(=O)c3oc4c(F)cccc4c3C)CC2=O)c1
→ -1.7	x	-6	-8	-7	4.3	0.8
CCc1nc(Nc2cccc(OC)c2)c2oc3ccccc3c2n1
→ -2.9	-7%	-3	16	5	5.0	1.3
O=C(NCC1CCCO1)Nc1ccc2c(c1)OCO2 (stereo not given)
→ -6.6	x	37	7	-5	-3.8	4.3
CCn1c(/C=N/NC(=O)c2ccc(OC)cc2)nc2ccccc21
→ 3.3	-5%	34	-6	0	0.2	-1.9
CC(C)C(=O)NCCc1nc2ccccc2n1CCOc1ccccc1
→ 5.0	x	-8	-16	-8	-0.6	-3.9
COc1ccc(CNC(=O)C2CCN(S(=O)(=O)c3ccc(SC)cc3)CC2)cc1
→ 7.9	x	x	1	3	-0.8	4.8
O=C1N=C(c2ccccc2)S/C1=C\c1cccs1
→ 4.4	9%	-2	-3	-3	12	2.6
Cc1cc2ccccc2n1CCNC(=O)C(C)Oc1ccccc1 (stereo not given)
→ 5.7	4%	x	9	-3	-5.1	8.4
O=C(NC1CCCc2ccccc21)c1cn2ccccc2n1 (stereo not given)
→ 1.4	u	7	-2	10	-3.5	u
O=C(NCc1ccc2c(c1)OCO2)c1nc(Cn2cc([N+](=O)[O-])cn2)no1
→ 2.0	7%	3	1	-1	4.5	-0.5
COc1ccc(CNc2nc3nc(C)c(Cl)c(C)n3n2)cc1
→ 0.9	33%	-5	-2	-27	4.6	-0.2
COc1ccc(/C=N/N2CCOCC2)cc1Cn1nc(C)c([N+](=O)[O-])c1C
→ -2.6	x	10	-1	-2	0.1	1.8
CSc1cc(-c2ccco2)oc1C(=O)c1ccco1
→ 2.9	x	-1	-12	1	5.3	9.6
COc1ccccc1/C=C/C=N/NC(=O)c1cnccn1
→ -12	x	-16	-3	-2	-1.8	-3.2
Cc1cc(C)cc(NC(=O)COc2ccc3c(C)c(Cc4ccccc4)c(=O)oc3c2)c1
→ -5.0	u	x	x	23	x	1.5
COc1cc(OC)c(OC)cc1CNCc1ccc2c(c1)OCO2
→ 2.3	x	-10	-7	-5	-3.4	2.4
COc1ccc(/C=C2\CCC/C(=C\c3ccc(OC)c(OC)c3OC)C2=O)c(OC)c1OC
→ x	1%	x	13	6	6.4	3.6
CC(C)(C)OC(=O)N1CCC(Cc2cc(-c3cccnc3)no2)(C(=O)O)CC1
→ 1.0	x	-1	-5	-2	3.7	4.0
COc1ccc(Br)cc1C1NC(=O)NC(C)=C1C(=O)N(C)C (stereo not given)
→ -3.9	4%	-20	-2	-6	-2.5	-2.8
Cc1cc(C(=O)CSc2nnc(-c3ccc(Cl)cc3)n2C)c(C)n1CC1CCCO1 (stereo not given)
→ -2.1	5%	25	-3	-3	-0.4	-0.1
COc1ccccc1NC(=O)CSc1n[nH]c(Cc2ccccc2)n1
→ 0.6	5%	4	1	3	-0.8	5.4
O=C1CSC(c2cccnc2)N1Cc1ccc(Cl)c(Cl)c1 (stereo not given)
→ -2.0	1%	x	0	0	-2.2	u
CCOC(=O)C1=C(CC)Nc2ccccc2N=C1NC(=O)c1cccc(S(=O)(=O)N2CCOCC2)c1
→ -0.6	4%	-1	2	x	-1.6	x
Cc1cccc(C(=O)NC(C(=O)Nc2ccccc2N2CCOCC2)C(C)C)c1 (stereo not given)
→ -3.2	6%	x	6	-1	2.9	6.0
CCNS(=O)(=O)c1ccc(CCC(=O)NCc2ccc3c(c2)OCO3)cc1
→ 2.9	x	-5	-3	-6	-5.2	2.2
Cc1ccc(C)c(C2=NNC(=O)CC2)c1
→ 0.6	x	11	1	-4	2.8	0.1
O=C(O)C1C2C=CC(C2)C1C(=O)NCCCN1CCCC1=O (stereo not given)
→ -3.4	8%	-10	3	-7	-0.4	-0.1
Cc1nn(-c2ccc(Cl)cc2Cl)c(C)c1C(=O)O
→ 0.4	5%	0	3	2	1.1	-0.1
O=C(CCn1c(=O)sc2ccccc21)NCCN1CCOCC1
→ 0.0	x	-5	-2	9	2.6	1.3
CS(=O)(=O)N1CCC(NC(=O)Nc2ccc(OC(F)(F)F)cc2)CC1
→ -0.6	x	-5	-4	x	-0.4	x
CCN(CC)S(=O)(=O)c1ccc(C(C)NC(=O)C2CCCN2C(=O)c2cccs2)cc1 (stereo not given)
→ 2.6	x	x	-3	x	-4.9	x
CCN(CC)C(=O)c1ccccc1NC(=O)CN1C(=O)c2ccccc2S1(=O)=O
→ 2.0	x	-1	-1	1	5.1	u
COc1cccc(CNc2ncc(-c3ccccc3)n2C)c1
→ -4.1	-1%	46	-6	-15	-0.6	-0.7
CC(Sc1ccc(S(=O)(=O)N(C)C)cn1)C(=O)NC1CCCC1 (stereo not given)
→ x	-18%	2	0	x	0.3	x
COc1ccc(CCNC(=O)COC(=O)c2ncc(Cl)c(Cl)c2Cl)cc1OC
→ x	-1%	x	-5	x	0.9	x
COc1ccccc1NC(=O)CSc1nnnn1-c1ccccc1OC
→ -4.8	x	-3	-4	3	-5.0	0.0
COc1ccc(CNCCCSc2ncccn2)c(OC)c1
→ 2.0	-5%	x	5	1	3.5	-7.0
COc1cnc(NS(=O)(=O)c2ccc(N)cc2)nc1
→ -3.3	4%	2	-3	4	-1.8	-2.8
Cc1ccc(C)c(NC(=O)CN(C)C(=O)c2ccc(S(=O)(=O)N3CCCCCC3)cc2)c1
→ 7.2	x	0	-7	x	-3.2	x
O=C(NCC1CCCO1)c1ccc(-c2ccccc2Cl)o1 (stereo not given)
→ -9.9	0%	x	-3	4	1.3	4.5
Cc1onc(-c2c(Cl)cccc2Cl)c1C(=O)Nc1ccc(N2CCOCC2)cc1
→ 2.1	10%	43	-3	-5	2.0	2.1
COc1ccc(C(=O)N2CCN(S(=O)(=O)c3ccccc3)CC2)c(OC)c1
→ 5.4	0%	2	8	-4	1.0	5.7
O=C1C(C2=NC(c3ccccn3)C3C(=O)N(c4ccc(Cl)cc4Cl)C(=O)C23)=C(O)c2ccccc21 (stereo not given)
→ 1.6	3%	x	5	1	-0.2	3.9

# Two of these compounds in a different format:
SMILES	LANA-H2B inh	Vif A3G	ALR inh	Beta2AR agonist	Calb FLC	HNF4A DNA FP	RanGTP-Impb inh
COc1cnc(NS(=O)(=O)c2ccc(N)cc2)nc1	-3.3	4%	2	-3	4	-1.8	-2.8
Cc1ccc(C)c(NC(=O)CN(C)C(=O)c2ccc(S(=O)(=O)N3CCCCCC3)cc2)c1	7.2	x	0	-7	x	-3.2	x

# More structures.
# Each structure is followed by: LANA-H2B inh	Vif A3G	ALR inh	Beta2AR agonist	Calb FLC	HNF4A DNA FP	RanGTP-Impb inh
O=C(Cn1c(=O)oc2ccccc21)Nc1cccc(Cl)c1
→ -2.5	6%	1	3	-7	-4.8	3.2
CCNC(=S)NNC(=O)c1nn(C)c(C)c1Cl
→ -1.5	9%	11	-7	119*	5.1	-0.9
Cc1ccccc1NC(=O)/C(C#N)=C\c1cccnc1
→ 0.5	1%	8	2	34	4.0	-2.7
Cc1ccc(N2CC(C(=O)N3CCC4(CC3)CC(=O)c3ccccc3O4)CC2=O)cc1C (stereo not given)
→ -7.3	3%	-3	1	2	-0.9	-4.8
COC(=O)c1ccccc1NC(=O)c1noc2c1CC(C(C)(C)C)CC2 (stereo not given)
→ 1.6	-1%	-6	-12	0	2.7	5.2
CCn1cc(CNC(=O)c2cc(-c3ccccc3OC)nc3ccccc23)c(C)n1
→ -8.7	17%	-4	17	7	-0.3	4.6
Cc1nc(SCc2nc3ccc(F)cc3[nH]2)c2oc3ccccc3c2n1
→ 0.4	x	0	8	x	1.7	x
CCOC(=O)N1CCN(Cc2ccccn2)CC1
→ -4.1	-1%	-2	-6	u	0.5	-0.1
O=C(O)c1cc([N+](=O)[O-])ccc1NCCCc1ccccc1
→ 4.7	x	-15	-3	x	-0.7	-6.7
COc1cc(S(=O)(=O)N2CCCCC2)ccc1NC(=O)c1ccccc1Cl
→ 0.3	u	-10	0	-5	-2.0	1.2
CC1CCc2cc(F)ccc2N1C(=O)c1cc2nc(-c3ccco3)cc(C(F)(F)F)n2n1 (stereo not given)
→ -0.2	15%&0%	-2	-9	10	2.9	4.8
CC(Sc1nnnn1-c1ccccc1)C(=O)NC1CCCC1 (stereo not given)
→ 8.9	-2%	-2	-3	x	1.6	x
C=C(C)COc1ccc(-c2[nH]ncc2Oc2ccccc2OCC)c(O)c1
→ -3.8	-5%&16%	2	1	3	2.3	-4.3
O=C(c1ccco1)N1CCN(c2ccc([N+](=O)[O-])cc2Cl)CC1
→ 4.2	11%	x	-6	-1	-5.2	0.3
COc1ccc(C2NC(c3ccc(OC)cc3OC)C(C)C(=O)C2C)c(OC)c1 (stereo not given)
→ 0.8	11%	-15	-4	8	4.1	116*
O=C(Nc1ccc(-n2nncc2-c2ccco2)cc1)c1ccc(F)cc1
→ -4.0	1%	-3	12	-3	-3.5	2.5
CCCCc1nnc(NC(=O)c2ccc3[nH]c(=O)c(=O)[nH]c3c2)s1
→ -3.1	x	-5	-4	-3	-1.6	1.8
Cc1cc(C)n2ncc(C(=O)Nc3cccc(O)c3)c2n1
→ 0.4	5%	-7	-2	8	-0.1	5.8
CC(C(=O)Nc1nc(-c2ccc(F)c(F)c2)cs1)N1C(=O)C2CC=CCC2C1=O (stereo not given)
→ -3.2	-7%	0	14	x	-0.1	x
CCOC(=O)c1c(C)n(C)c2ccc(OC)c(NC(=O)CN3CCC4(CC3)OCCO4)c12
→ 1.4	3%	-2	5	0	-2.7	1.7
